Screening results (PubChem BioAssay)
NS1 inh: inhibitors of influenza NS1 protein function; Potency, µM (series often up to 46.1 µM), for the others: at the highest dose activity, positive = more growth; actives 0.4% (n = 270,000); AID 2326; S. cerevisiae slowed by influenza A NS1, growth recovery by OD600; also: actives are rising curves; nearly all actives have a fitted effect of over 50% in size
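Recovery from NS1-induced slow growth read by OD600 in budding yeast switched to galactose assay medium (pH 6.0, -URA) at 1:100 dilution. Compound 23 nl per well; the matching strain lacking NS1 serves as control.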
Cruzain noTriton: blocks cruzain activity in detergent-free assay. P25779. purified cruzain, Z-FR-AMC fluorescence, no detergent. Potency, µM, inactives show max response, negative = inhibition, usual class: inhibitors. actives 2.3% (n = 200,000). AID 1476; active = well fitted curve in the direction sought with a large enough effect; inconclusive = small, poorly fitted or top-dose-only effect, or another doubt; inactive = no such curve, though single readings can be large; an effect the other way counts as inactive or inconclusive;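 also: plate controls were enzyme without inhibitor for no effect and buffer without enzyme for full effect; nearly all actives have a fitted effect of over 40% in size; top concentration of the series not given in the record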
Target sequence (P25779 123-467 limits assumed): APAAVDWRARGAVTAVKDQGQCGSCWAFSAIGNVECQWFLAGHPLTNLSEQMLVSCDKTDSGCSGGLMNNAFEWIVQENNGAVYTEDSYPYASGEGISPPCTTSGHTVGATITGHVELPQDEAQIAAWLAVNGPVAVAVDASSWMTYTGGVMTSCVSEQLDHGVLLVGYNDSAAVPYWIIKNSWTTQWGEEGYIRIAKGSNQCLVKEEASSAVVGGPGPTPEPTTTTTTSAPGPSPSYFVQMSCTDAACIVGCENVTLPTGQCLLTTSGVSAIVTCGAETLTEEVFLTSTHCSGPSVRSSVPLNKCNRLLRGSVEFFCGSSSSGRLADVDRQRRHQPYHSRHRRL
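Purified cruzain at 1.5 nM, pre-incubated 15 min with compound at room temperature in 100 mM sodium acetate pH 5.5, 5 mM DTT, 0.00005% Triton X-100. Reaction started with 2 uM Z-FR-AMC; AMC fluorescence increase over 60 s gives rate.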
RE007 growth inh: less growth of the S. pombe RE007 Vpr strain | S. pombe RE007 Vpr strain, BacTiter-Glo ATP luminescence, 24 h; control for the full effect not named in the record | Potency, µM (top dose mostly 92.2 µM), for the others: at the highest dose activity change, negative = less growth | actives 0.21% (n = 360,000) | AID 651644; active = well fitted falling curve with a large enough effect; inconclusive = small, poorly fitted or top-dose-only effect; inactive = no such curve, though single readings can be large or run the other way;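 also: % is scaled to controls: 0 for no effect and ±100 for the full control effect; nearly all actives have a fitted effect of over 50% in size; the assay follows cell death caused by Vpr and the record does not say whether a fall means rescue or toxicity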
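Fission yeast RE007 carrying one integrated HIV-1 vpr copy, seeded at OD 0.01 in PMG+AL medium with 23 nL pinned compound. Grown 24 h at 30 degrees; viability read by BacTiter-Glo luminescence after 5 min.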
StopGo reporter: lowers the luciferase signal of an FMDV 2A StopGo reporter; human cells with a luciferase reporter of 2A StopGo recoding; control for the full effect not named in the record; Potency, µM (doses to about 57.9 µM), for inactives: at the highest dose signal change, negative = less light; actives 1.2% (n = 410,000); AID 1159524; active = well fitted falling curve with a large enough effect; inconclusive = small, poorly fitted or top-dose-only effect; inactive = no such curve, though single readings can be large or run the other way; tested in HEK293T cells; also: % is scaled to controls: 0 for no effect and ±100 for the full control effect; nearly all actives have a fitted effect of over 45% in size; luciferase light after 4 h
SARS PLP yeast: blocks SARS-CoV papain-like protease in a yeast assay; S. cerevisiae expressing SARS-CoV PLpro, growth rescue; control for the full effect not named in the record; Potency, µM (series often up to 32.9 µM), for the others: at the highest dose activity, positive = growth rescue; actives 0.19% (n = 330,000); also: 0% is about no effect; nearly all actives have a fitted effect of over 55% in size; growth read by luminescence after 48 h
LASV entry inh: blocks Lassa virus binding to or entry into cells; Lassa virus pseudotype entry inhibition, cell reporter; control for the full effect not named in the record; Potency, µM (doses to about 37.9 µM), without a hit: top-dose activity change, negative = inhibition, actives largely listed as inhibitors; actives 1.2% (n = 300,000); active means well fitted inhibition curve with a large enough effect; inconclusive means small, poorly fitted or top-dose-only effect, or effect the other way; inactive means flat fitted curve, though single readings scatter; tested in HEK293 cells; also: % is scaled to controls: 0 for no effect and ±100 for the full control effect; nearly all actives have a fitted effect of over 50% in size; luciferase read-out
Cruzain Triton: blocks cruzain activity in presence of Triton detergent; P25779; actives 0.43% (n = 200,000); purified cruzain, Z-FR-AMC fluorescence, 0.01% Triton; Potency, µM, inactives show max response, negative = inhibition, actives largely listed as inhibitors; AID 1478; active = well fitted curve in the direction sought with a large enough effect; inconclusive = small, poorly fitted or top-dose-only effect, or another doubt; inactive = no such curve, though single readings can be large; an effect the other way counts as inactive or inconclusive;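 also: plate controls were neutral wells for no effect and buffer without enzyme for full effect; nearly all actives have a fitted effect of over 40% in size; top concentration of the series not given in the record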
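Detergent-containing arm of a paired screen for aggregation-based inhibition: 0.01% Triton X-100 present. Cruzain at 1.5 nM cleaved 2 uM Z-FR-AMC at pH 5.5 with 5 mM DTT; AMC fluorescence gain over 60 s measured activity.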
MARV entry inh: Marburg virus entry inhibition | Marburg virus pseudotyped entry inhibition, cell reporter; control for the full effect not named in the record; about a third of the inactives were read at about 46 µM | Potency, µM (titrated, usually from 37.8 µM), for the others: top-dose activity change, negative = inhibition, most hits filed as inhibitors | actives 1.8% (n = 300,000) | AID 540276; active = well fitted inhibition curve with a large enough effect; inconclusive = small, poorly fitted or top-dose-only effect, or effect the other way; inactive = flat fitted curve, though single readings scatter; tested in HEK293 cells; about a fifth of its hits are not listed in these tables; also: % is scaled to controls: 0 for no effect and ±100 for the full control effect; luciferase read-out
* = called active by the depositor; ? = inconclusive; . = not tested or not shown; & = joins results of further samples; [ ] = another dose, or the depositor's remark. Unless noted, calls follow the shape of the dose curve; as a rule, active means well fitted rising curve with a large enough effect; inconclusive means small, poorly fitted or top-dose-only effect; inactive means no such curve, though single readings can be large or run the other way. Potency is read from the fitted curve at half-maximal effect.

SMILES	NS1 inh	Cruzain noTriton	RE007 growth inh	StopGo reporter	SARS PLP yeast	LASV entry inh	Cruzain Triton	MARV entry inh
c1ccc(CC2CCCNC2)cc1 (stereo unspecified)	-3%	.	-8%	5%	1%	2%	.	16%[46.1 µM]
Cc1cc(NC(=O)CSc2nc3ccccc3s2)no1	-11%	32µM*	-1%	-2%	-10%	0%	1.0%	11%
CC(=O)NNC(=O)CCn1nnc(-c2ccc(Cl)cc2)n1	2%	.	5%	-12%	0%	4%	.	21%[46.1 µM]
O=C(O)CCn1c(Cc2ccccc2)nc2ccccc21	12%	.	-1%	-8%	-5%	15%	.	24%
CCOc1ccccc1NC(=O)COC(=O)CC(C)(C)CC1=NS(=O)(=O)c2ccccc2N1	-10%	18%	-10%	-19%&-28%	-5%	?	0.2%	?
CCc1c(C)sc(NC(=O)c2cc(-c3ccc(O)cc3)on2)c1C#N	7%	7.9µM*	-10%	-5%	-7%	.	-1.0%	.
Cn1c(=O)c(=O)n(C)c2cc(S(=O)(=O)N3CC(=O)N(CCc4ccccc4)C(=O)C3)ccc21	2%	.	27%	-20%	0%	.	.	.
COc1cc(/C=N/NC(=O)CCN2CCN(Cc3ccccc3)CC2)cc(OC)c1OC	-6%	12%	.	-28%	4%	1%	-5.7%	-7%
CCN1c2cccc3cccc(c23)S1(=O)=O	0%	-6%	-10%	22%	-2%	-2%	0.5%	-23%
COc1ccc(NC(=O)Cn2nc(C(F)(F)F)c3c2CCCC3)cc1OC	3%	?	13%	?	-2%	-16%[46.1 µM]	-5.8%&-5.6%	?
O=C(Nc1ccc(F)cc1)c1cncs1	4%	.	-2%	-1%	-3%	1%	.	-2%
CC(C)CC(=O)NS(=O)(=O)c1ccc(N)cc1	5%	6%	-1%	8%	16%	20%	6.3%	?
CCOC(=O)N1CCc2c(sc(NCc3cc(OC)c(OC)cc3OC)c2C(=O)Nc2ccc(OCC)cc2)C1	.	25%	.	-4%	.	4%[46.1 µM]	-14%	.
CCC(=NCCO)c1c(O)n(-c2ccc(Cl)cc2)c(=O)[nH]c1=O	-1%	3%	2%	9%	7%	1%	1.6%	-25%
O=C(NCCc1ccccc1)C1CCN(C(=O)NCc2ccccc2)CC1	8%	-3%	10%	-22%	-24%	-8%	0.7%	8%
Cc1ccc2nsnc2c1NC(=O)c1ccc([N+](=O)[O-])cc1	.	.	-3%	?	0%	?	.	?
CCn1c(=O)cc(OCC(=O)NCc2ccccc2Cl)c2ccccc21	.	-6%	.	3%	.	20%[46.1 µM]	-16%	8%[46.1 µM]
Cc1ccc(N(C)C(=O)Oc2cccc3ccc(C)nc23)cc1	-45%	-5%	8%	-13%	-2%	-22%	2.3%	5%
CC1CC(C)CN(CCCNC(=O)C2CCCN(c3ncnc4c3nc3n4CCCCC3)C2)C1 (stereo unspecified)	4%	.	-12%	20%	-1%	-3%	.	?
CC(=O)Cc1nsc(NC(=O)c2cc(-c3ccccc3Cl)oc2C)n1	11%	1%	9%	-20%	-2%	.	-4.3%	.
COC(=O)CNC(=O)C1CCN(C(=O)OCc2ccccc2)CC1	5%	-1%	-3%	-17%	0%	-1%	-4.8%	2%[46.1 µM]
C/C(Cn1nnc([N+](=O)[O-])n1)=N\NC(=O)c1ccncc1	.	.	4%	-21%	4%	?	.	?
O=C(O)COc1c(-c2ccco2)oc2ccccc2c1=O	.	.	-3%	3%	-2%	-9%[46.1 µM]	.	9%[46.1 µM]
CCOC(=O)c1c(C)[nH]c(CCC(=O)NCc2cc(Br)ccc2OC)c1C	.	-13%	.	5%	.	-18%[46.1 µM]	-2.9%	.
O=C(c1ccccc1F)N1CCN(C(=O)C2CC2)CC1	15%	.	6%	-17%	3%	9%	.	3%
C#CCn1c(O)c(N=NC(=O)C(O)c2ccccc2)c2ccccc21 (stereo unspecified)	-1%	.	6%	20%	-3%	-1%	.	-1%[46.1 µM]
O=[N+]([O-])c1ccc(N/N=C/c2ccc(OCc3cccc4ccccc34)cc2)nc1	.	.	14%	28%	-10%	-26%	.	?
COc1cc2cc(CN(CCCN3CCOCC3)C(=O)Nc3ccc(F)cc3)c(=O)[nH]c2cc1OC	-3%	.	0%	3%	0%	.	.	.
COc1cc(C(=O)Nc2ccc(-c3nc4cc(C)ccc4o3)c(O)c2)cc(OC)c1OC	10%	5%	13%	.	-7%	?	-18%	?
COc1ccnc(Oc2ccc(C)cc2)c1C#N	-2%	-2%	9%	79%[activator]	2%	?	1.8%	23%
COCCNC(=O)CN(C(=O)CCC(=O)Nc1cc(C)on1)c1ccc(C)cc1C	-3%	6%	4%	4%	1%	20%	5.0%	-16%
O=[N+]([O-])c1cc(Cl)ccc1-c1nc(-c2ccccc2)no1	13%	14%	-28%	-13%	13%	?	-0.7%	?
COc1cccc(S(=O)(=O)Nc2cccc(C(=O)N3CCCC3)c2)c1	-3%	.	-19%	-5%	2%	.	.	.
O=C(O)CCc1ccc(-c2ccccc2)n1-c1cccc(O)c1	11%	-3%	-10%	.	0%	2%	-2.6%	-1%&-2%
Cc1[nH]c2ccccc2c1C(=O)COC(=O)C(C)C	-9%	3%	-10%	10%	0%	10%	2.6%	9%
O=C(CN1CCCc2ccccc21)N/N=C/c1ccccc1	0%	-5%	.	44%[activator]	8%	13%	-3.4%	?
O=C(CSc1ccccc1)Nc1ccncc1	0%	-6%	-15%	-3%	2%	5%	-0.4%	2%
C[C@@H](C(=O)NCC1CC1)[C@H]1C[C@]1(C)[C@H](NC(=O)OCc1ccccc1)c1ccccc1	-61%	5%&-2%	2%	-9%	-8%	?	-3.8%&-1.1%	-2%
CC(=O)OCCNC(=O)c1cc2ccccc2oc1=O	5%	-12%	5%	11%	6%	7%	-4.2%	?
CCOC(=O)N1CCN(C(=O)c2ccc3c(=O)n(CCC4=CCCCC4)c(=S)[nH]c3c2)CC1	1%	?	-3%	-23%	1%	?	-6.7%	-22%&-22%
COc1ccc(CN2CCNC(=O)C2CC(=O)N(C)CCC2CCOCC2)c(OC)c1 (stereo unspecified)	-14%	.	2%	-6%	-2%	.	.	.
CN([C@@H](C(=O)OC(C)(C)C)c1ccccc1)S(=O)(=O)c1cccc(S(=O)(=O)N(C)[C@@H](C(=O)OC(C)(C)C)c2ccccc2)c1	4%	.	-1%	-17%	4%	.	.	.
Nc1cccc(-c2nc3ccc(C(=O)c4ccccc4)cc3[nH]2)c1	-1%	.	3%	23%	-2%	.	.	.
CCN1CCCC1CNC(=O)Cn1nc(C)n2c(cc3cc(C)ccc32)c1=O (stereo unspecified)	0%	.	-20%	4%	2%	-31%[46.1 µM]	.	-11%[46.1 µM]
CC1(C)NC(=O)N(CC(=O)OCC(=O)NC(=O)c2ccccc2)C1=O	.	.	10%	-19%	-2%	-11%	.	?
C=CCOC(=O)C1=C(C)NC(=O)NC1c1ccc2c(c1)OCO2 (stereo unspecified)	22%	.	-9%	-9%	0%	.	.	.
Cc1ccc(C(=O)OC2CCCN(C)C2)cc1 (stereo unspecified)	4%	.	9%	9%	1%	.	.	.
Cc1nc2c(s1)sc1ccccc12	-8%	-1%	-2%	48%[activator]	2%	-3%	-0.2%	14%[46.1 µM]
COc1ccc(C(=O)n2nc(C)cc2C)cc1OC	-12%	9%	2%	18%	.	13%	-1.3%	?
CCOc1ccccc1CNC(=O)c1ccc2c(c1)sc1nc(-c3ccccc3)cn12	.	12%	.	3%	.	5%[46.1 µM]	-0.4%	.

Complete entries from above. Values in the order: NS1 inh, Cruzain noTriton, RE007 growth inh, StopGo reporter, SARS PLP yeast, LASV entry inh, Cruzain Triton, MARV entry inh
Cc1ccc(C(=O)OC2CCCN(C)C2)cc1 (stereo unspecified) as listed: 4%, ., 9%, 9%, 1%, ., ., .
CCN1CCCC1CNC(=O)Cn1nc(C)n2c(cc3cc(C)ccc32)c1=O (stereo unspecified) as listed: 0%, ., -20%, 4%, 2%, -31%[46.1 µM], ., -11%[46.1 µM]
CC1(C)NC(=O)N(CC(=O)OCC(=O)NC(=O)c2ccccc2)C1=O as listed: ., ., 10%, -19%, -2%, -11%, ., ?
COc1ccc(CN2CCNC(=O)C2CC(=O)N(C)CCC2CCOCC2)c(OC)c1 (stereo unspecified) as listed: -14%, ., 2%, -6%, -2%, ., ., .
C=CCOC(=O)C1=C(C)NC(=O)NC1c1ccc2c(c1)OCO2 (stereo unspecified) as listed: 22%, ., -9%, -9%, 0%, ., ., .

(more compounds)
SMILES	NS1 inh	Cruzain noTriton	RE007 growth inh	StopGo reporter	SARS PLP yeast	LASV entry inh	Cruzain Triton	MARV entry inh
COc1ccc(Cn2c(C)c(C)c(C#N)c2NC(=O)Nc2cccc(Cl)c2)cc1	4%	?	6%	-11%	-4%	-20%	-3.8%	-12%
CC(=O)c1ccc(N=Nc2ccc(N)cc2)cc1	0%	.	-23%	-30%	-3%	.	.	.
CCOCCOC(=O)C1=C(C)NC2=C(C(=O)CC(c3cccs3)C2)C1c1ccsc1 (stereo unspecified)	-28%	12%	-14%	-16%	-4%	?	-5.7%	-33%
Cc1[nH]c2ccccc2c1C(=O)C(C)OC(=O)c1ccc(Cl)nc1 (stereo unspecified)	.	.	-18%	?	1%	1%	.	-27%
COc1ccc(CC(=O)N2CCc3cc(OC)c(OC)cc3C2O)cc1OC (stereo unspecified)	7%	.	10%	37%[activator]	4%	.	.	.
CC(=O)c1cccc(NC(=O)C(C)N(C)CC(=O)Nc2ccc(Cl)cc2)c1 (stereo unspecified)	-5%	.	-12%	-19%	0%	-13%	.	-5%[46.1 µM]
CN(C)C(=O)c1cn(-c2ccccc2)nc1-c1cccc([N+](=O)[O-])c1	-4%	.	-17%	-15%	0%	-19%[46.1 µM]	.	0%[46.1 µM]
